Assay outcomes deposited in PubChem BioAssay by Broad Institute.
STAT3 SMM: STAT3 binders, primary screen, biochemical, small molecule microarray, single point, set 2; Signal transducer and activator of transcription 3 (Homo sapiens), P40763; His-STAT3 binding, anti-His fluorescence; calls only; 17,000 compounds, 0.2% hits;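 active = compounds whose four printed spots each show fluorescence over background unusually high for their array block, chance value under 7%; compounds were printed on slides so no solution concentration is given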;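 note: about 2 pmol printed per array spot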
Target sequence (P40763 whole entry, looked up): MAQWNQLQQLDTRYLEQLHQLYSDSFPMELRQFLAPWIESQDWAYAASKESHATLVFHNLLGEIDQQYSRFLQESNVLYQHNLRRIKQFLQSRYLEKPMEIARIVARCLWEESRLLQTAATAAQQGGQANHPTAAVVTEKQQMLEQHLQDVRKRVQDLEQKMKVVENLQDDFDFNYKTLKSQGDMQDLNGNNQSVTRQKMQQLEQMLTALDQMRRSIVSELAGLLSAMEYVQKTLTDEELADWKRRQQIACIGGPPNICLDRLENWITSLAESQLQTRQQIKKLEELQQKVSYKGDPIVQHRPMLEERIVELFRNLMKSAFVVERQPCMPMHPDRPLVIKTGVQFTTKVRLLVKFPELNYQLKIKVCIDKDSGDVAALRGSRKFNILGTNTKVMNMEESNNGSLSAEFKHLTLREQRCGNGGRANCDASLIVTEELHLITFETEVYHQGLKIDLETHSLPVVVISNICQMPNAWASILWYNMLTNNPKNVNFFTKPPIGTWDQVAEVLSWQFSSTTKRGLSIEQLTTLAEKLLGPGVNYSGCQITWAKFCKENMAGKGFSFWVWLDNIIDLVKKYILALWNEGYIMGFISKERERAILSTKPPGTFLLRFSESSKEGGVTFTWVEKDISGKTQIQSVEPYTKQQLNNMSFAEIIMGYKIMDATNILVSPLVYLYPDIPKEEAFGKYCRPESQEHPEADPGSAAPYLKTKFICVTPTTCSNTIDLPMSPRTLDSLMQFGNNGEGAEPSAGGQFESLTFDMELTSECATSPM
Myc binder: binders of human c-Myc, primary screen, biochemical, small molecule microarray, anti-His fluorescence. Myc proto-oncogene protein (Homo sapiens), P01106. 17,000 compounds, 1.5% hits. His-c-Myc binding. calls only;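 active = spot fluorescence over background with P-value below 7% in all four replicate spots, showing protein binding; compounds were printed on slides so no solution concentration is given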;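 note: score is binary with 100 for all four spots passing and 0 otherwise; about 2 pmol printed per array spot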
p53 mut binder: binders of human mutant p53, primary screen, biochemical, small molecule microarray, anti-GST fluorescence; mutant tumor protein p53 (GST-tagged), Homo sapiens; small molecule microarray binding; calls only; 17,000 compounds, 0.4% hits;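 active = compounds whose four printed spots each glow above background more than chance allows, each with a p-value under 7%; compounds were printed on slides so no solution concentration is given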;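 note: about 2 pmol printed per array spot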
ID4 SMM: binders of human ID4 protein, primary screen, biochemical, small molecule microarray, single point; 31,000 compounds, 1.2% hits; calls only; Flag-ID4 binding, fluorescence F/B;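 active = spot signal over background at p below 0.07 in all four prints; compounds were printed on slides so no solution concentration is given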;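 note: a binder raises fluorescence above local background on the spot; about 2 pmol printed per array spot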
Target sequence (P47928 whole entry, looked up): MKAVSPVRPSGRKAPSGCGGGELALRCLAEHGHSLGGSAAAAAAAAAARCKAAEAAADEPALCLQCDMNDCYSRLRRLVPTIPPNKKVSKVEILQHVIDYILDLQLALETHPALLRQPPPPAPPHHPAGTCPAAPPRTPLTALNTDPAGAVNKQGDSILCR
Calls only; i = inactive; x = no result given; + = active, no number. An excerpt; rates above refer to the full screens.

SMILES | STAT3 SMM | Myc binder | p53 mut binder | ID4 SMM
Cc1noc(C)c1NC(=O)N(C)C[C@H]1Oc2ccc(NC(=O)Nc3cccc4ccccc34)cc2C(=O)N([C@H](C)CO)C[C@H]1C | i | i | i | i
Cc1noc(C)c1S(=O)(=O)N(C)C[C@H]1Oc2c(NC(=O)c3ccc(-c4nccs4)cc3)cccc2C(=O)N([C@H](C)CO)C[C@H]1C | i | i | i | i
CNC[C@@H]1Oc2c(NC(=O)Nc3ccc(C(F)(F)F)cc3)cccc2C(=O)N([C@H](C)CO)C[C@@H]1C | i | i | i | i
C[C@@H]1O[C@@H](O[C@H]2[C@H](O[C@H]3[C@H](O[C@H]4CC[C@@]5(C)C(CC[C@]6(C)C5CC=C5[C@@H]7CC(C)(C)C[C@@H](O)[C@]7(C)CC[C@]56C)[C@@]4(C)CO)O[C@H](C(=O)O)[C@@H](O)[C@@H]3O)OC[C@H](O)[C@@H]2O)[C@H](O)[C@H](O)[C@H]1O (stereo partly drawn) | i | + | + | i
O=C(O)CCC(=O)Nc1ccc(-c2nc3ccc(C(=O)c4ccccc4)cc3[nH]2)cc1 | i | i | i | +
COc1ccccc1NC(=O)c1c(NCc2ccc(C)o2)sc2c1CCC2 | i | i | i | i
Cc1ccc(S[C@]2(C(=O)NCc3ccccc3)CC(=O)N(C3CCCCC3)[C@@H]2c2ccc(CO)cc2I)cc1 | i | i | i | x
CC1(C)CC(=O)c2cnc(NC(=O)CSc3nc4ccccc4o3)nc2C1 | i | i | i | i
C[C@@H]1CN([C@H](C)CO)C(=O)c2cccc(NC(=O)Nc3ccc(C(F)(F)F)cc3)c2O[C@@H]1CN(C)C | i | i | i | i
Cc1[nH]c2ccccc2c1C(=O)CCC(=O)O | i | i | i | +
Cc1cc(C)cc(N2C(=O)CSC2c2cccc([N+](=O)[O-])c2)c1 (stereo not drawn) | i | i | i | i
CC(C)N(C(=O)Cn1c(-c2ccco2)nc2ccccc21)c1ccccc1 | i | i | i | i
Cc1ccccc1OC(C)C(=O)Nc1ccccc1C(N)=O (stereo not drawn) | i | i | i | i
CCO[C@@H]1OC(C(=O)N2CCOCC2)=C[C@H](c2ccccc2)[C@H]1CCCO | i | i | i | i
COc1ccc(CN(C)C[C@@H]2Oc3c(NC(=O)Nc4c(C)noc4C)cccc3C(=O)N([C@@H](C)CO)C[C@@H]2C)cc1 | i | i | i | i
COc1ccc(NC(=O)CCN2CCc3ccccc3C2)c(OC)c1 | i | i | i | i
CC(=O)CC(c1ccc([N+](=O)[O-])cc1)c1c(O)c2ccccc2oc1=O (stereo not drawn) | i | i | i | i
COc1cc2c(cc1OC)CN(C(=O)[C@H]1[C@@H]3C(=O)O[C@@H](c4ccccc4)[C@@H](c4ccccc4)N3[C@@H](c3ccc(OCCO)cc3)[C@]13C(=O)Nc1ccccc13)CC2 | i | i | i | i
Cc1ccc(S(=O)(=O)Nc2ccc3c(c2)C(=O)N([C@@H](C)CO)C[C@H](C)[C@@H](CN(C)Cc2ccc(C(=O)Nc4ccccc4N)cc2)OCCCC[C@@H](C)O3)cc1 | i | i | i | x
CC(C)NC(=O)N(C)C[C@H]1OCCCC[C@H](C)Oc2ccc(NC(=O)CCC(F)(F)F)cc2C(=O)N([C@H](C)CO)C[C@@H]1C | i | + | i | i
C[C@H]1CN([C@@H](C)CO)C(=O)c2cccc(NS(=O)(=O)c3ccccc3)c2O[C@@H]1CN(C)Cc1ccc(Oc2ccccc2)cc1 | i | i | i | x
COc1ccc(OC)c(C(=O)c2coc3ccc(OCC(=O)O)cc23)c1 | i | i | i | i
CCOc1ccccc1OC(c1ccccc1)C1CNCCO1 (stereo not drawn) | i | i | i | i
C[C@@H]1CN([C@@H](C)CO)C(=O)Cc2cc(NC(=O)CCN3CCOCC3)ccc2O[C@H]1CN(C)C(=O)Nc1cccc2ccccc12 | i | i | i | i
CS(=O)(=O)CCC(C(=O)Nc1cccc2ncccc12)N1C(=O)c2cc(Cl)c(Cl)cc2C1=O (stereo not drawn) | i | i | i | i
Cc1cc(C(=O)Nc2cccc3c2O[C@@H](CN(C)CC2CC2)[C@H](C)CN([C@H](C)CO)C3=O)n(C)n1 | i | i | i | i
Cc1cc2c(cc1O[C@@H]1O[C@H](CO[C@@H]3OC[C@@H](O)[C@H](O)[C@H]3O)[C@@H](O)[C@H](O)[C@H]1O)C(=O)c1ccccc1C2=O | i | i | i | i
COc1ccc(CN(C)C[C@H]2Oc3c(NC(=O)C4CCCCC4)cccc3C(=O)N([C@@H](C)CO)C[C@H]2C)cc1 | i | i | i | x
C[C@@H]1CN([C@@H](C)CO)C(=O)c2cc(NC(=O)CCN3CCOCC3)ccc2O[C@H]1CN(C)C(=O)Nc1ccccc1 | i | i | i | i
CC(C)=CCc1c(O)c(CC=C(C)C)c2c(c1O)C(=O)CC(c1ccccc1)O2 (stereo not drawn) | i | + | i | i

The closing 7 records of the section before come first, to join the parts:
SMILES | STAT3 SMM | Myc binder | p53 mut binder | ID4 SMM
C[C@@H]1CN([C@@H](C)CO)C(=O)Cc2cc(NC(=O)CCN3CCOCC3)ccc2O[C@H]1CN(C)C(=O)Nc1cccc2ccccc12 | i | i | i | i
CS(=O)(=O)CCC(C(=O)Nc1cccc2ncccc12)N1C(=O)c2cc(Cl)c(Cl)cc2C1=O (stereo not drawn) | i | i | i | i
Cc1cc(C(=O)Nc2cccc3c2O[C@@H](CN(C)CC2CC2)[C@H](C)CN([C@H](C)CO)C3=O)n(C)n1 | i | i | i | i
Cc1cc2c(cc1O[C@@H]1O[C@H](CO[C@@H]3OC[C@@H](O)[C@H](O)[C@H]3O)[C@@H](O)[C@H](O)[C@H]1O)C(=O)c1ccccc1C2=O | i | i | i | i
COc1ccc(CN(C)C[C@H]2Oc3c(NC(=O)C4CCCCC4)cccc3C(=O)N([C@@H](C)CO)C[C@H]2C)cc1 | i | i | i | x
C[C@@H]1CN([C@@H](C)CO)C(=O)c2cc(NC(=O)CCN3CCOCC3)ccc2O[C@H]1CN(C)C(=O)Nc1ccccc1 | i | i | i | i
CC(C)=CCc1c(O)c(CC=C(C)C)c2c(c1O)C(=O)CC(c1ccccc1)O2 (stereo not drawn) | i | + | i | i
Cc1c(C(=O)N(C)C)sc(NC(=O)c2cc(-c3cccnc3)nc3c(C)c(Cl)ccc23)c1C#N | i | i | i | i
COc1ccc(C)c(Cn2c(-c3nonc3N)nc3ccccc32)c1 | i | i | i | i
Cc1noc(C)c1NC(=O)N(C)C[C@H]1OCCCC[C@@H](C)Oc2ccc(NS(C)(=O)=O)cc2C(=O)N([C@H](C)CO)C[C@@H]1C | i | i | i | i
Cc1onc(-c2ccccc2)c1C(=O)N(CCC#N)CCC#N | i | i | i | i
Cc1cccc(OCC(=O)Nc2ccccc2C(=O)NC(C)(C)C)c1 | i | i | i | i
C[C@H](CO)N1C[C@H](C)[C@H](CN(C)Cc2ccc(-c3ccccc3)cc2)Oc2c(NS(=O)(=O)c3cccs3)cccc2C1=O | i | i | i | i
CCC(C)C(O)C(C)(O)/C=C/C1=CC2=C(Cl)C(=O)C(C)(O)C(O)C2=CO1 (stereo not drawn) | i | i | i | i
C[C@@H]1CN([C@H](C)CO)C(=O)c2cc(NC(=O)Nc3ccccc3)ccc2O[C@H]1CN(C)C(=O)Nc1ccccc1 | i | i | i | i
COc1ccc([Si](C)(C)[C@@H]2[C@@H](CCO)O[C@]3(C(=O)N(Cc4ccc(NC(=O)[C@H](C)O)cc4)c4ccccc43)[C@H]2C)cc1 | i | i | i | i
C[C@H]1CN([C@@H](C)CO)C(=O)c2cc(NC(=O)Nc3ccccc3)ccc2O[C@@H]1CN(C)C(=O)Nc1ccc(C(F)(F)F)cc1 | i | i | i | i
C[C@H](CO)N1C[C@H](C)[C@@H](CN(C)C)OCCCC[C@H](C)Oc2ccc(NC(=O)Nc3ccc(F)cc3)cc2C1=O | i | i | i | i
Cn1nnnc1SCC(=O)Nc1cccc(NC(=O)C23CC4CC(CC(C4)C2)C3)c1 | i | i | i | i
CCCC(O)C#Cc1cnc2c(c1)C(=O)N([C@H](C)CO)C[C@H](C)[C@H](CN(C)S(=O)(=O)c1ccc(F)cc1)O2 (stereo partly drawn) | i | i | i | i
COC(=O)c1c(NC(=O)c2ccc(Cn3cc(Cl)cn3)cc2)sc2c1CCC2 | i | i | i | i
C[C@H]1CN([C@@H](C)CO)C(=O)CCCn2cc(nn2)CO[C@@H]1CN(C)Cc1ccc2c(c1)OCCN2C | i | i | i | i
COc1ccc(CN(C)C[C@@H]2Oc3c(NC(=O)Nc4ccc(OC)cc4)cccc3C(=O)N([C@@H](C)CO)C[C@H]2C)cc1 | i | i | i | i
C[C@H]1CCCCO[C@@H](CN(C)C(=O)CCC(F)(F)F)[C@@H](C)CN([C@@H](C)CO)C(=O)c2cc(NS(=O)(=O)c3cn(C)cn3)ccc2O1 | i | i | i | i
COc1cccc(CCc2ccccc2OCC[C@@H]2C[C@@H](O)CN2C)c1 | i | i | i | i
Cc1noc(C)c1NC(=O)N(C)C[C@H]1Oc2ccc(NC(=O)C3CC3)cc2CC(=O)N([C@@H](C)CO)C[C@H]1C | i | i | i | i
O=C(CSc1nnc(-c2ccccc2O)n1-c1ccccc1)Nc1ccc2c(c1)OCCO2 | i | i | i | i
C[C@H]1CN([C@@H](C)CO)C(=O)c2cccc(NC(=O)c3nc4ccccc4s3)c2O[C@@H]1CN(C)CC1CCCCC1 | i | i | i | x
O=C(OC1C(c2c(O)cc(O)c(C(=O)c3ccc(O)cc3)c2O)OC(CO)C(O)C1O)c1cc(O)c(O)c(O)c1 (stereo not drawn) | i | i | i | i
C[C@@H]1CN([C@H](C)CO)C(=O)c2cc(NC(=O)Nc3ccc4c(c3)OCO4)ccc2O[C@@H]1CN(C)S(=O)(=O)c1cn(C)cn1 | i | i | i | i
C[C@H](CO)N1C[C@H](C)[C@@H](CN(C)Cc2ccc3c(c2)OCO3)Oc2c(NC(=O)Nc3cccc4ccccc34)cccc2C1=O | i | i | i | i
C[C@@H]1CN([C@@H](C)CO)C(=O)c2cc(NC(=O)Nc3ccc(F)cc3)ccc2O[C@H]1CN(C)S(=O)(=O)c1cccs1 | i | i | i | i
C[C@@H]1CN([C@H](C)CO)C(=O)c2cc(NC(=O)Nc3ccc4c(c3)OCO4)ccc2O[C@@H](C)CCCCO[C@H]1CN(C)Cc1ccccc1 | i | i | i | i
C=CCOC(=O)C1=C[C@H](c2csc3ccccc23)[C@@H](CCCO)[C@H](OCC)O1 | i | i | i | i
O=C1CCC[C@@H]2c3[nH]c4ccccc4c3CCN12 | i | i | i | i
COc1ccc(NC(=O)Nc2cccc3c2O[C@@H](CN(C)S(=O)(=O)c2ccc(Cl)cc2)[C@@H](C)CN([C@H](C)CO)C3=O)cc1 | i | i | i | i
Cc1noc(C)c1NC(=O)N(C)C[C@@H]1Oc2ccc(NC(=O)NC3CCCCC3)cc2C(=O)N([C@@H](C)CO)C[C@H]1C | i | i | i | i

Overlap with the part before: two entries; new compounds follow.
SMILES | STAT3 SMM | Myc binder | p53 mut binder | ID4 SMM
COc1ccc(NC(=O)Nc2cccc3c2O[C@@H](CN(C)S(=O)(=O)c2ccc(Cl)cc2)[C@@H](C)CN([C@H](C)CO)C3=O)cc1 | i | i | i | i
Cc1noc(C)c1NC(=O)N(C)C[C@@H]1Oc2ccc(NC(=O)NC3CCCCC3)cc2C(=O)N([C@@H](C)CO)C[C@H]1C | i | i | i | i
Cc1cccc(NC(=O)c2ccccc2NC(=O)COc2ccccc2)c1C | i | i | i | i
CNC[C@H]1Oc2c(NC(=O)Nc3c(C)noc3C)cccc2C(=O)N([C@@H](C)CO)C[C@H]1C | i | i | i | i
C[C@@H]1CN([C@H](C)CO)C(=O)Cc2cc(NC(=O)Nc3ccc(C(F)(F)F)cc3)ccc2O[C@@H]1CN(C)Cc1ccncc1 | i | + | i | i
Cc1noc(C)c1S(=O)(=O)N(C)C[C@@H]1OCCCC[C@H](C)Oc2ccc(N(C)C)cc2C(=O)N([C@@H](C)CO)C[C@H]1C | i | i | i | i
CCCN(C)C[C@H]1OCCCC[C@H](C)Oc2ccc(NS(=O)(=O)c3ccc(OC)cc3)cc2C(=O)N([C@@H](C)CO)C[C@H]1C | i | i | i | i
COc1ccc(CN(C)C[C@H]2Oc3ccc(NC(=O)Cc4cn(C)c5ccccc45)cc3C(=O)N([C@H](C)CO)C[C@@H]2C)cc1 | i | i | i | i
COc1ccc2[nH]cc(CCNC(=O)Nc3ccccc3)c2c1 | i | i | i | i
C[C@@H]1CN([C@@H](C)CO)C(=O)c2cc(NC(=O)CCCN(C)C)ccc2O[C@H]1CN(C)C(=O)Nc1cccc2ccccc12 | i | i | i | +
Cc1cc(I)cnc1NC(=S)NC(=O)c1ccco1 | i | i | i | i
CCCN(C)C[C@H]1OCCCC[C@H](C)Oc2ccc(NS(=O)(=O)c3ccc(OC)cc3)cc2C(=O)N([C@H](C)CO)C[C@H]1C | i | i | + | i
Cn1cnnc1SCc1nc2ccc([N+](=O)[O-])cc2[nH]1 | i | i | i | i
CCOC(=O)CN1C(=O)C(O)(c2c[nH]c3ccccc23)c2ccccc21 (stereo not drawn) | i | i | i | i
Cc1ccc2nsnc2c1S(=O)(=O)NCc1ccncc1 | i | i | i | i
CCn1ccnc1CC1COc2ccccc2O1 (stereo not drawn) | i | i | i | i
C[C@@H]1CCCCO[C@@H](CN(C)C)[C@@H](C)CN([C@H](C)CO)C(=O)c2cc(NS(C)(=O)=O)ccc2O1 | i | i | i | i
